Screening results as filed in PubChem BioAssay.
FGF22 binding: binders of human FGF22 protein, primary screen, FGF22 synaptogenesis inhibitor project, biophysical, thermal shift, single point | recombinant FGF22 thermal shift, SYPRO orange fluorescence; percent of sucrose octasulfate shift, DMSO zero | Fibroblast growth factor 22 (Homo sapiens), Q9HCT0 | calls only at 9.99 µM | hit rate 1.5% among 340,000;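 active means melting point raised past a set limit in the mean and every replicate; inconclusive means no clear call; three in four hits are not shown here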
Target sequence (Q9HCT0 whole entry, looked up): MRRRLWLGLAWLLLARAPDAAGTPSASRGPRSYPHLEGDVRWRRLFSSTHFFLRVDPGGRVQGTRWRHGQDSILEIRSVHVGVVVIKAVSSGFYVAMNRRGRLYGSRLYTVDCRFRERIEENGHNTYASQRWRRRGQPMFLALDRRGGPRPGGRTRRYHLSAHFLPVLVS
rRNA inh HTS: reduced GFP signal of wild-type E. coli, primary screen, bacterial rRNA inhibitor project, GFP/RFP fluorescence, OD600, single point; GFP signal change (wild-type ribosome), % (concentration not given with the values); hit rate 1.6% among 350,000; AID 720706, 2013; E. coli WT GFP vs humanized-ribosome RFP mutants, 24 h; active compounds read low; DMSO median 0, no signal -100;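 active means significant combined selectivity score with lowered wild-type GFP, culture density cut under 30%, mutant RFP and density less affected; inactive means any of these conditions unmet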; further: one replicate is shown; some compounds called inactive have numbers as strong as hits
Vif A3G: inhibitors of Vif binding to APOBEC3G peptide, primary screen, biochemical, TR-FRET, GST-Vif 1-94, biotin-A3G peptide, dose response retest (AID 1117319); TR-FRET GST-Vif / biotin-A3G peptide binding; higher % means a stronger effect; test concentration not given here; strong numbers were not always called active; one-dose inhibition, %; IC50 in µM for titrated hits; hit rate 0.57% among 260,000;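 active means above the screen mean plus three standard deviations and confirmed in dose response; inconclusive means results disagree or hit not tested in dose response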;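 further: Vif residues 1-94 fused to GST binding biotinylated APOBEC3G peptide 110-148; 0% = full assay without inhibitor and 100% = GST in place of GST-Vif; retest series ran down from 100 µM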
HNF4A DNA FP: change in binding of human HNF4A to DNA, primary screen, biochemical, fluorescence polarization, FITC-DNA; Hepatocyte nuclear factor 4-alpha (Homo sapiens), P41235; 1 h; activity change, % at 10 µM; hit rate 0.3% among 360,000; AID 1224865, 2016; in the data active means activity change above about 30%, passing the limit was not always enough;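 further: controls were the assay level and a saturating level of protein; the project sought stronger binding though the title names inhibitors; some compounds called inactive have numbers as strong as hits; positive values seem to mean higher polarization but the record does not say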
AF4-AF9 inh: inhibitors of AF4 peptide binding to AF9, primary screen, biochemical, AlphaScreen, biotin-AF4 peptide, FLAG-AF9, single point. Protein AF-9 (Homo sapiens), P42568. inhibition, % at 10 µM. hit rate 0.47% among 350,000. AID 651704, 2012;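 active means every replicate reaching a set inhibition limit, whatever the replicate mean, cut at about 25% in these data; inconclusive means mean inhibition reaches that limit but some replicates miss it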;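 further: 0% = plate neutral control median and 100% = total signal loss; the record names both 10 and 1 µM as test concentration; the first replicate is given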
Target sequence (P42568 whole entry, looked up): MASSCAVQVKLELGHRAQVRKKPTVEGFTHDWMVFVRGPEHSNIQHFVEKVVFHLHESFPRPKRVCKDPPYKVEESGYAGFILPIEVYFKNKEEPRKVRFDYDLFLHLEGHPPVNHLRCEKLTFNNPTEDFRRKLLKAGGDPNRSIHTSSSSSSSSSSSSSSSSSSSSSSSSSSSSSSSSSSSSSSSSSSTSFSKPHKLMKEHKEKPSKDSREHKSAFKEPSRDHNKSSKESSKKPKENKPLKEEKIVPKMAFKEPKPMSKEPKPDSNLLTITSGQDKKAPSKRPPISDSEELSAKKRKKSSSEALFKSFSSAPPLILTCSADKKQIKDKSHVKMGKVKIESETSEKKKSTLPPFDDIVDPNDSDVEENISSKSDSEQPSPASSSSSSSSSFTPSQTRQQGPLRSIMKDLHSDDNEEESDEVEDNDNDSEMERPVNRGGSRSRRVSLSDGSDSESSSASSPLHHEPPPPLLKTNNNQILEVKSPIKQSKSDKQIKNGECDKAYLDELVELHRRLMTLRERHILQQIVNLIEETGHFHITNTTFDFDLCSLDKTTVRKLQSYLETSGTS
ALR H2O2 inh: inhibitors of human ALR sulfhydryl oxidase, primary screen, biochemical, H2O2 detection, HRP-luminol luminescence, single point; FAD-linked sulfhydryl oxidase ALR (Homo sapiens), P55789; purified ALR, DTT oxidation; inhibition, % (concentration not given with the values); hit rate 3.8% among 290,000; AID 485317, 2010;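 active means mean and each replicate at 75% or more; inconclusive means only one of the two met; inactive means neither met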;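 further: stock transfer was 7.5 nL into about 7.5 µL; 0% = neutral wells and 100% = wells with inactivated enzyme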
E coli growth: E. coli growth inhibition, primary screen, OD600 | Escherichia coli growth, 23 h; active compounds read low | OD600 absorbance (concentration not given with the values) | hit rate 0.21% among 330,000;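 active means OD600 absorbance below the run mean of sample wells minus 3.6 SD, in any replicate, cut at about 0.56 in these data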;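 further: stock transfer was 300 nL into about 60 µL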
rRNA inh HTS OD600: second read-out of rRNA inh HTS, no call of its own (marks repeat the call); OD600 change, %; measured here: OD600 growth;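 optical density of the mix in the first replicate; 0 = DMSO median and -100 = no signal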
rRNA inh HTS RFP: second read-out of rRNA inh HTS, no call of its own (marks repeat the call); RFP signal change, %; measured here: RFP humanized mutant strains;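 first replicate; 0 = DMSO median and -100 = no signal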
* marks the source's active call; other numbers are inactive results; i = inactive; ? = inconclusive; . = no result given. A portion of the library; count on the stated rates, not on these rows.

entry	mol	FGF22 binding	rRNA inh HTS	rRNA inh HTS OD600	rRNA inh HTS RFP	Vif A3G	HNF4A DNA FP	AF4-AF9 inh	ALR H2O2 inh	E coli growth
1	Cc1cc(Br)ccc1SCC(=O)NNC(=O)c1ccco1	i	2	3	-1.7	.	0.0	-4.3	.	0.67
2	O=C1CC(N(CCc2ccccc2)C(=S)Nc2ccccc2)C(=O)N1c1ccccc1 (centres undefined)	.	.	.	.	.	1.8	.	1	0.66
3	COc1ccccc1CCNC(=O)CSCC(=O)Nc1ccccc1F	i	-5	-8	-0.3	15%	0.8	-0.3	.	.
4	Cc1c(NC(=O)C(=O)/C=C(\O)c2ccc(Cl)cc2)c(=O)n(-c2ccccc2)n1C	.	.	.	.	7%	4.7	.	30	.
5	CCOc1cc(C)c(Cl)cc1S(=O)(=O)NCCOC	i	12	7	0.1	-3%	-1.7	3.1	-4	0.73
6	O=C(CSc1nnc(NC(=O)c2c(F)cccc2F)s1)NC1CC1	i	2	3	0.1	.	-1.0	3.1	1	0.65
7	CC(C)N1CCc2c(sc(NC(=O)c3ccc(S(=O)(=O)N(C)CC4CCCO4)cc3)c2C(N)=O)C1 (centres undefined)	i	-6	-5	-0.7	2%	3.0	2.0	-5	0.73
8	CCC(=O)N1CCC2(CC1)CN(C(=O)CN1CCOCC1)[C@@H](CO)c1c2c2ccc(OC)cc2n1C	i	1	9	-7.4	.	.	-0.7	.	.
9	CCOC(=O)C1=C(C)NC2=C(C(=O)C(C(=O)OC)C(C)C2)C1c1ccc(OC)c(O)c1 (centres undefined)	.	.	.	.	2%	3.3	.	9	0.68
10	CC(C)(C)c1ccc(C(=O)O)c(C(=O)c2ccc(C(=O)O)cc2)c1	i	8	-5	-3.7	-4%	-6.6	-11	2	0.66
11	O=C(CN1C(=O)NC2(CCc3ccccc32)C1=O)c1ccccc1 (centres undefined)	i	1	11	2.2	4%	-1.3	-2.0	-1	0.69
12	N/C(Cc1ccccc1)=N\OC(=O)c1cccc2ccccc12	i	-8	-11	0.4	.	8.2	-2.1	-4	0.7
13	CCN(CC)CCNc1c2c(c(C#N)c3nc4ccccc4n13)CCCC2	.	.	.	.	4%	-0.6	.	2	0.68
14	O=[N+]([O-])c1cccc(/C=N/n2c(C3CCCCC3)n[nH]c2=S)c1	i	.	.	.	.	-0.7	-3.5	3	.
15	COC(=O)c1ccccc1NC(=O)CSc1nc(C)cc(C)n1	i	-33	-32	-6.4	4%	-2.9	-0.5	2	0.65
16	CCOc1ccccc1N1CC(C(=O)N(C)Cc2cccnc2)CC1=O (centres undefined)	i	6	8	-2.5	.	0.5	0.5	-2	0.63
17	CCOC(=O)c1sc(=S)n(-c2ccccc2Cl)c1SC	i	-14	-27	15	0%	-4.3	-39	4	0.68
18	O=C(O)Cc1cn(Cc2ccc(F)cc2)c2ccccc12	i	-4	-12	-1.8	-6%	-2.8	-2.5	27	0.73
19	C=CCn1c(Cc2nc3ccccc3[nH]2)n[nH]c1=S	.	.	.	.	?	-1.5	.	15	0.7
20	Cc1c(CCO)c(=O)n(-c2ccccc2)n1S(=O)(=O)c1c(Cl)cc(Cl)cc1Cl	.	.	.	.	11%	-3.8	.	2	0.77
21	CC(C)CC#Cc1ccc2c(c1)O[C@H](CN(C)Cc1ccccn1)[C@H](C)CN([C@H](C)CO)S2(=O)=O	i	-34	-51	8.1	.	.	6.9	.	.
22	COc1ccc(S(=O)(=O)Nc2ccc3c(c2)CC(=O)N([C@@H](C)CO)C[C@H](C)[C@H](CN(C)S(=O)(=O)c2cn(C)cn2)O3)cc1	i	3	0	1.5	.	.	-3.0	.	.
23	Cc1ccc(C)c(OCc2cc(C(=O)N3CC[C@H](O)C3)no2)c1	i	-4	-6	-2.4	-3%	0.4	-0.9	0	0.68
24	O=C(COC(=O)c1cccc(S(=O)(=O)N2CCCC2)c1)Nc1ccc(Cl)cc1	i	-6	-21	-5.0	.	-1.4	2.2	.	.
25	CC(=O)c1ccccc1NC(=O)CCCNC(=O)c1ccc(Cl)cc1	i	-4	-12	-2.6	.	-2.3	-0.4	-9	0.62
26	O=C(Cc1ccccc1)N[C@H]1CC[C@@H](CC(=O)N2CCOCC2)O[C@@H]1CO	i	4	-1	0.7	.	.	-13	.	.
27	COc1ccc(NC(=O)Cn2c(NCC(C)O)nc3ccccc32)cc1Cl (centres undefined)	i	10	6	3.3	28%	-0.6	-1.0	-15	0.71
28	CNC[C@H]1Oc2c(NC(=O)Nc3ccc4c(c3)OCO4)cccc2C(=O)N([C@@H](C)CO)C[C@@H]1C	i	0	3	-2.2	.	.	1.9	.	.

Ordered by the number under rRNA inh HTS RFP (largest number first): 6 from the list above.
| No. | Molecule | rRNA inh HTS RFP |
| --- | --- | --- |
| 17 | CCOC(=O)c1sc(=S)n(-c2ccccc2Cl)c1SC | 15 |
| 21 | CC(C)CC#Cc1ccc2c(c1)O[C@H](CN(C)Cc1ccccn1)[C@H](C)CN([C@H](C)CO)S2(=O)=O | 8.1 |
| 27 | COc1ccc(NC(=O)Cn2c(NCC(C)O)nc3ccccc32)cc1Cl (centres undefined) | 3.3 |
| 7 | CC(C)N1CCc2c(sc(NC(=O)c3ccc(S(=O)(=O)N(C)CC4CCCO4)cc3)c2C(N)=O)C1 (centres undefined) | -0.7 |
| 16 | CCOc1ccccc1N1CC(C(=O)N(C)Cc2cccnc2)CC1=O (centres undefined) | -2.5 |
| 15 | COC(=O)c1ccccc1NC(=O)CSc1nc(C)cc(C)n1 | -6.4 |

Entries of single compounds as entered above. Screens in order: FGF22 binding, rRNA inh HTS, rRNA inh HTS OD600, rRNA inh HTS RFP, Vif A3G, HNF4A DNA FP, AF4-AF9 inh, ALR H2O2 inh, E coli growth
Entry for O=C(O)Cc1cn(Cc2ccc(F)cc2)c2ccccc12 → i, -4, -12, -1.8, -6%, -2.8, -2.5, 27, 0.73
Entry for CCOC(=O)c1sc(=S)n(-c2ccccc2Cl)c1SC → i, -14, -27, 15, 0%, -4.3, -39, 4, 0.68
Entry for CCC(=O)N1CCC2(CC1)CN(C(=O)CN1CCOCC1)[C@@H](CO)c1c2c2ccc(OC)cc2n1C → i, 1, 9, -7.4, ., ., -0.7, ., .
Entry for O=C1CC(N(CCc2ccccc2)C(=S)Nc2ccccc2)C(=O)N1c1ccccc1 (centres undefined) → ., ., ., ., ., 1.8, ., 1, 0.66
Entry for Cc1c(CCO)c(=O)n(-c2ccccc2)n1S(=O)(=O)c1c(Cl)cc(Cl)cc1Cl → ., ., ., ., 11%, -3.8, ., 2, 0.77
